26S disassembly: blocks ATP-dependent breakdown of the yeast 26S proteasome; hit rate 0.2% among 24,000; AID 751; inhibition of disassembly, % (no concentration beside the values); anti-FLAG beads, GFP-proteasome disassembly, flow cytometry;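 active means above 40%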;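 further: plate controls were ATP control with full disassembly for no effect and ATP-gamma-S intact proteasomes for full effect; higher percent means more bead fluorescence retained so stronger block of disassembly; stock transfer was 100 nL into about 10 µL; wells with too few beads may also be inconclusive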
VCAM-1 up: boosters of cytokine-driven VCAM-1 levels – cell-based, plate reader, pooled HUVEC, TNFa stimulus (AID 455); HUVEC TNFa-induced VCAM-1 immunofluorescence, plate reader; numbers were filed only for top-ranked candidate wells; augmentation, % at 5 µM; hit rate 0.2% among 10,000;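 active means a compound raising TNF-alpha-driven VCAM-1 surface staining, with its hit status upheld on visual or statistical review; inactive means the rest, including hits rejected on review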;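 further: 0% = TNFa with vehicle and 100% = strongest image-checked hit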
* hit, by the source's call; i = inactive; x = not tested or not shown. An excerpt, so the mix of outcomes need not match the whole.

SMILES | 26S disassembly | VCAM-1 up
CCCC(=O)Nc1cccc(-c2cn3ccsc3n2)c1 | 0.2 | x
CCOc1cc(C2CC(=O)NC3=C2C(=O)C(C(=O)OC)C(C)C3)cc(Cl)c1O (stereo unspecified) | -0.2 | x
Cc1cc(NC(=O)CSc2nc3ccccc3n2CC(=O)N2CCCCC2)no1 | -0.1 | i
CCn1cc(C(=O)NCc2ccc(Cl)cc2)c(=O)c2cc(S(=O)(=O)N3CCOCC3)ccc21 | -3.0 | x
CC(C)N(CCCNC(=O)CC1Oc2ccccc2NC1=O)Cc1ccccc1 (stereo unspecified) | -0.6 | x
CCC(C)C(=O)Nc1nc2c(s1)C(=O)CC(C)(C)C2 (stereo unspecified) | 0.1 | i
COc1ccc(OC(C)C(=O)N2CC(C)OC(C)C2)cc1 (stereo unspecified) | -0.7 | i
COc1ccc(NC(=O)CCS(=O)(=O)c2cccc3nonc23)c(OC)c1 | -1.6 | x
CNC[C@H](O)c1cccc(O)c1 | -0.1 | i
CCOc1ccc(NC(=O)CN(C)CC(=O)NC2CCCc3ccccc32)cc1OCC (stereo unspecified) | 1.4 | i
Cc1ccc(C(=O)Nc2c3c(nn2C(C)(C)C)CS(=O)(=O)C3)cc1C | 0.8 | x
CCOC(=O)c1sc(NC(=O)CNC(=O)Cn2cnc3sc(C)c(C)c3c2=O)nc1C | 0.5 | i
Cc1oc(-c2ccc(Cl)cc2)nc1CS(=O)CC(=O)NCCN1CCCC1 (stereo unspecified) | 154* | x
CCC1(c2ccccc2)C(=O)NCNC1=O | 0.8 | i
C=CCOC(=O)C1=C(C)OC(N)=C(C#N)C1c1ccc(F)cc1 (stereo unspecified) | 0.7 | x
CN(C(=O)c1cc2n(n1)C(C(F)(F)F)CC(c1ccco1)N2)c1ccc(OC(F)(F)F)cc1 (stereo unspecified) | 0.7 | x
CCOC(=O)c1c(C)c(C(=O)NCCCOC(C)C)c(C)n1C | 0.1 | x
O=C(NCc1ccccc1)c1ccc(F)c(S(=O)(=O)N2CCOCC2)c1 | 0.9 | x
O=C(CCn1c(=S)[nH]c2cc3c(cc2c1=O)OCO3)NCCN1CCCC1 | -1.0 | x
CC(=O)N1CCCc2cc(S(=O)(=O)NCc3ccc(C)cc3)ccc21 | -0.1 | x
COCCCNC(=O)CCc1nc(-c2ccccc2Cl)no1 | 1.1 | i
Cc1ccc(-c2cc(C)nc3ncnn23)cc1 | -0.4 | x
C/C=C/Cn1c(SCCCc2ccccc2)nc2c1c(=O)[nH]c(=O)n2C | -0.1 | i
COc1ccc(NC(=O)N2CCN(c3nc(-c4cccc(OC)c4)cs3)CC2)cc1 | 3.4 | i
Cc1nc2ccccc2c2oc(C(=O)N3CCc4ccccc43)cc12 | -0.1 | x

Given field by field: four of the compounds above.
COCCCNC(=O)CCc1nc(-c2ccccc2Cl)no1
  26S disassembly: 1.1	VCAM-1 up: i

O=C(CCn1c(=S)[nH]c2cc3c(cc2c1=O)OCO3)NCCN1CCCC1
  26S disassembly: -1.0	VCAM-1 up: x

Cc1oc(-c2ccc(Cl)cc2)nc1CS(=O)CC(=O)NCCN1CCCC1 (stereo unspecified)
  26S disassembly: 154*	VCAM-1 up: x

C=CCOC(=O)C1=C(C)OC(N)=C(C#N)C1c1ccc(F)cc1 (stereo unspecified)
  26S disassembly: 0.7	VCAM-1 up: x

The list goes on.
SMILES | 26S disassembly | VCAM-1 up
COc1ccc(C(=O)O)cc1NS(=O)(=O)c1cccc2nsnc12 | -0.6 | x
O=C(NCC1CCCCN1)c1cc(OCC(F)(F)F)ccc1OCC(F)(F)F (stereo unspecified) | -0.4 | i
O=C(C1CC1(c1ccccc1)c1ccccc1)N1CCOCC1 (stereo unspecified) | -1.7 | i
CCC(C)(C(=O)NC1CCCCC1)N(Cc1ccco1)C(=O)c1cnccn1 (stereo unspecified) | -0.8 | i
C=CCOc1cccc(C2/C(=C(\O)c3ccc(F)cc3)C(=O)C(=O)N2CCN(C)C)c1 (stereo unspecified) | 1.8 | i
COc1ccc(CCNC(=O)C2CCN(S(=O)(=O)N3CC(C)CC(C)C3)CC2)cc1OC (stereo unspecified) | 0.4 | x
O=[n+]1c2c(n([O-])c3cc(F)c(F)cc31)CCCC2 | -0.6 | x
COc1cccc(-c2cc(C(=O)Nc3ccccc3SC)no2)c1 | 0.1 | x
CCC(C)(C(=O)NC1CCCC1)N(C(=O)c1cnccn1)c1ccccc1 (stereo unspecified) | 0.6 | x
CC(Cc1ccc(O)c(O)c1)C(C)Cc1ccc(O)c(O)c1 (stereo unspecified) | 1.5 | i
Cc1ccc(N(CC(=O)Nc2cccc(C)c2)S(=O)(=O)c2cccc3nonc23)cc1 | -1.8 | x
COc1cc(C)c(S(=O)(=O)NCc2ccc3c(c2)OCO3)cc1C | 1.5 | x
Cc1[nH]c(=O)c(C#N)c(C)c1Br | 0.7 | x
COc1cc(OC)c(C2N(c3ccc(Cl)c(Cl)c3)C(=O)C3CCCN32)cc1OC (stereo unspecified) | -0.8 | x
COCCNC(=O)NC(=O)COC(=O)Cc1ccc2c(c1)OCCO2 | 4.0 | i
COC(=O)CN1C(=O)C2(C(C#N)=C(N)Oc3cc(C)oc(=O)c32)c2ccccc21 (stereo unspecified) | -0.2 | x
CCCCNC(=O)CSc1nc2cc3c(cc2c(=O)n1CCCN(CC)CC)OCO3 | -3.4 | x
Cn1c(CSc2nnc(SCc3ccccc3)s2)nc2ccccc21 | -1.9 | x
CCCN(CCC)CCNC(=O)c1cc2c(C)nc3ccccc3c2o1 | 5.2 | x
COc1cccc(NC(=O)c2nnn(Cc3ccc(Br)cc3F)c2N)c1 | -0.6 | i
CCS(=O)(=O)N1CCCC(c2nc(-c3cccc(OC)c3)no2)C1 (stereo unspecified) | 0.2 | i
COc1ccc(N2CCN(c3cc(C)c4ccc(O)cc4n3)CC2)cc1 | -5.5 | x
FC(F)(F)c1cc(-c2ccco2)nc(NCc2cccs2)n1 | 1.1 | x
CCN(CCCNC(=O)C1CCN(S(=O)(=O)N2CCOCC2)CC1)c1cccc(C)c1 | -0.8 | x
Cn1c(C(=O)NCc2cccnc2)cc2sccc21 | 0.0 | i

A draw from above in order of count of non-hydrogen atoms, lowest first.
SMILES | 26S disassembly | VCAM-1 up
O=[n+]1c2c(n([O-])c3cc(F)c(F)cc31)CCCC2 | -0.6 | x
Cn1c(C(=O)NCc2cccnc2)cc2sccc21 | 0.0 | i
CC(Cc1ccc(O)c(O)c1)C(C)Cc1ccc(O)c(O)c1 (stereo unspecified) | 1.5 | i
COc1ccc(C(=O)O)cc1NS(=O)(=O)c1cccc2nsnc12 | -0.6 | x
COc1cccc(NC(=O)c2nnn(Cc3ccc(Br)cc3F)c2N)c1 | -0.6 | i
CCC(C)(C(=O)NC1CCCC1)N(C(=O)c1cnccn1)c1ccccc1 (stereo unspecified) | 0.6 | x
COc1cc(OC)c(C2N(c3ccc(Cl)c(Cl)c3)C(=O)C3CCCN32)cc1OC (stereo unspecified) | -0.8 | x

(listing goes on)
SMILES | 26S disassembly | VCAM-1 up
CC1CN(C(=O)CCn2c(=O)oc3ccccc32)CC(C)O1 (stereo unspecified) | -1.0 | x
CCCCN(CCCNC(=O)C1CCN(S(=O)(=O)N2CCOCC2)CC1)c1ccccc1 | 0.6 | x
O=C(NC1(C(F)(F)F)N=C2SCCN2C1=O)c1ccco1 (stereo unspecified) | 1.4 | x
CC1CCc2c(C(=O)NCCN3CCOCC3)csc2C1 (stereo unspecified) | -0.1 | x
O=C(CCn1c(=O)oc2ccccc21)NC1=NCCS1 | 0.2 | x
CCN(CCCNC(=O)CC(C(=O)N1CCc2ccccc21)n1ccnc1)c1cccc(C)c1 (stereo unspecified) | -0.3 | x
CSCC[C@@H](C(=O)O)N1Cc2ccccc2C1=O | -5.4 | x
O=C(Nn1c(C2CC2)nc2ccccc2c1=O)c1ccco1 | -1.0 | i
CC(C)Cc1cc(C(=O)NCCCN2CCOCC2)no1 | -0.1 | x
CCn1cc(C2=NOC(C(=O)Nc3cccc(C(C)=O)c3)C2)c(C)n1 (stereo unspecified) | -3.1 | x
CN(C)c1ccc(NC(=O)c2cc3c(=O)n4ccccc4nc3n2C)cc1 | 1.3 | i
O=C(CSc1nnnn1-c1ccccc1Cl)Nc1ccc2c(c1)OCCO2 | 1.4 | i
Cc1cc(C)c(S(=O)(=O)Nc2cccnc2)c(C)c1 | -0.1 | i
O=C(NCc1ccc2c(c1)OCO2)C1CCC(CNc2c(N3CCCCC3)c(=O)c2=O)CC1 (stereo unspecified) | -0.5 | i
CCN=C1SC(CC(=O)Nc2sc(C)c(C)c2C(=O)OC)C(=O)N1CC (stereo unspecified) | -0.8 | x
Cc1cccc(CCNC(=O)C2CCCN(S(=O)(=O)c3cnc[nH]3)C2)c1 (stereo unspecified) | -0.1 | i
COc1ccc(C2C(C(=O)NCCN(C)C)c3ccccc3C(=O)N2C)cc1OC (stereo unspecified) | 0.7 | x
CN(Cc1cnn(C)c1)C(=O)c1cc2ccccc2oc1=O | -1.5 | i
CCOC(=O)N1CCN(c2c(NCCN3CCCCC3CC)c(=O)c2=O)CC1 (stereo unspecified) | -0.1 | x
C=CCn1c(COc2ccc(Cl)cc2)nnc1SCC(=O)N1CC(=O)Nc2ccccc21 | 0.4 | i
Cc1ccc2nc(SC(C)C(=O)N3CCCC3)[nH]c2c1 (stereo unspecified) | -1.0 | i
Cc1c(NC(=O)C(C)Oc2ncnc3ccccc23)c(=O)n(-c2ccccc2)n1C (stereo unspecified) | -1.2 | i
CC(C)N(Cc1nc(-c2ccccc2)no1)C(=O)CCCN1C(=O)c2ccccc2C1=O | 0.7 | i
CCOC(=O)C1CCN(C(c2cc3cc(C)cc(C)c3[nH]c2=O)c2nnnn2C2CCCCC2)CC1 (stereo unspecified) | 4.2 | i
O=C(C1CCCN(S(=O)(=O)c2cccc3cccnc23)C1)N1CCN(c2ccc(F)cc2)CC1 (stereo unspecified) | 0.0 | x
More results.
SMILES | 26S disassembly | VCAM-1 up
C/C=C(\CS(=O)(=O)c1ccccc1)S(=O)(=O)c1ccccc1 | 0.5 | i
CCNc1nc(SCCOc2ccc(C)cc2)nc(N(C)C)n1 | -2.7 | x
COc1cc(C(=O)Nc2ccc(-c3nc4cc(C)ccc4o3)c(O)c2)cc(OC)c1OC | 5.8 | x
Cc1cc(NC(=O)CSc2nnc(-c3ccc4c(c3)OCCO4)o2)no1 | 0.2 | x
Cc1nnc(SC(=O)N2c3ccccc3Sc3ccccc32)s1 | 0.8 | i
Cc1cc(C)c2c(=O)n(CC(=O)NCCCN3CCN(c4ccccc4F)CC3)sc2n1 | 7.1 | i
O=C(c1cncc(Br)c1)N1CCN(c2ccc(N3CCOCC3)nn2)CC1 | 1.4 | x
CCOC(=O)CNC(=O)Cn1c(C)cc2ccccc2c1=O | 0.0 | x
COC(=O)c1c(C(C)=O)cnc2ccc(Br)cc12 | -0.8 | x
O=C(NC1CCCCC1)c1sc(=S)n2c1[nH]c(=O)c1ccccc12 | -0.9 | x
CCOC(=O)CNC(=O)Cn1cnc2c(nnn2-c2cccc(Cl)c2)c1=O | -0.1 | i
Cc1nc2sccn2c(=O)c1CCN1CCC(=C(c2ccccc2)c2ccc(F)cc2)CC1 | 1.0 | i
CC1CCN(C(=O)C(Cc2ccccc2)n2cccc2)CC1 (stereo unspecified) | 0.5 | x
Cc1[nH]c(=O)[nH]c(=O)c1S(=O)(=O)N1CCCC(C(=O)N2CCN(c3ccccc3Cl)CC2)C1 (stereo unspecified) | -0.1 | x
COc1ccc(-c2c(C(F)(F)F)oc3c(CN4CCN(C)CC4)c(O)ccc3c2=O)cc1 | 0.8 | i
CC(=O)c1c(C)[nH]c(C(=O)NC2=NCCS2)c1C | 2.1 | i
CSC1=C(C#N)C(c2ccc(C)cc2)C2=C(CCCC2=O)N1 (stereo unspecified) | 3.2 | i
CC(=O)N1CCc2cc(S(=O)(=O)NCCC(=O)NCCc3ccccc3)ccc21 | 0.5 | x
O=c1cc(NCc2ccco2)[nH]c(=O)n1-c1ccc(Br)cc1 | 6.9 | x
O=C(OCc1cc2ccccc2[nH]c1=O)c1ccncc1 | 0.2 | i
Cn1c(=O)c2cc(S(=O)(=O)NCCC(=O)Nc3ccccc3F)ccc2n(C)c1=O | 0.2 | x
CC1CCCCN1S(=O)(=O)c1ccc2c(c1)oc(=O)n2CC(=O)O (stereo unspecified) | 2.0 | x
COc1ccccc1S(=O)Cc1ccc(C(=O)NCc2ccccc2Cl)o1 (stereo unspecified) | 0.4 | x
Cc1cc(=O)c2n(Cc3ccccc3Cl)nc[n+]2[nH]1 | 4.1 | i
CCn1c(SCC(=O)N2c3ccccc3CCc3ccccc32)nc2c1c(=O)n(C)c(=O)n2C | 3.3 | i
COc1ccc(C(=O)N2CCN(C(=O)c3ccco3)CC2)cc1OC | -1.1 | i
COc1cc2c(cc1OC)-c1nnc(C)n1C1(CCCC1)C2 | -0.7 | i
CCOP(=O)(c1ccc(N(C)C)cc1)C(O)c1cc(OC)c(OC)c(OC)c1 (stereo unspecified) | -2.5 | i
CCOc1cccc(C(=O)Nc2cccc(-c3nc4ncccc4o3)c2C)c1 | -0.5 | i
CC(=O)c1cccc(NC2c3ccccc3C(=O)N2Cc2ccc3c(c2)OCO3)c1 (stereo unspecified) | -0.3 | x

Screening data: PubChem BioAssay, several laboratories
